# Screens (PubChem BioAssay)
# RecA intein inh = Mtb RecA intein splicing inhibitors, primary screen, biochemical, fluorescence, HTS | Protein RecA (Mycobacterium tuberculosis (strain ATCC 25618 / H37Rv)), P9WHJ3 | cell-free RecA intein splicing | inhibition, %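 (about 9 µM by stock and volumes)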 | 290,000 tested, 0.75% active; in the data active means inhibition above about 30%; inconclusive means no clear call, values can overlap the other calls;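 further: 0% = vehicle wells and 100% = reference inhibitor control wells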
# Target sequence (P9WHJ3 whole entry, looked up): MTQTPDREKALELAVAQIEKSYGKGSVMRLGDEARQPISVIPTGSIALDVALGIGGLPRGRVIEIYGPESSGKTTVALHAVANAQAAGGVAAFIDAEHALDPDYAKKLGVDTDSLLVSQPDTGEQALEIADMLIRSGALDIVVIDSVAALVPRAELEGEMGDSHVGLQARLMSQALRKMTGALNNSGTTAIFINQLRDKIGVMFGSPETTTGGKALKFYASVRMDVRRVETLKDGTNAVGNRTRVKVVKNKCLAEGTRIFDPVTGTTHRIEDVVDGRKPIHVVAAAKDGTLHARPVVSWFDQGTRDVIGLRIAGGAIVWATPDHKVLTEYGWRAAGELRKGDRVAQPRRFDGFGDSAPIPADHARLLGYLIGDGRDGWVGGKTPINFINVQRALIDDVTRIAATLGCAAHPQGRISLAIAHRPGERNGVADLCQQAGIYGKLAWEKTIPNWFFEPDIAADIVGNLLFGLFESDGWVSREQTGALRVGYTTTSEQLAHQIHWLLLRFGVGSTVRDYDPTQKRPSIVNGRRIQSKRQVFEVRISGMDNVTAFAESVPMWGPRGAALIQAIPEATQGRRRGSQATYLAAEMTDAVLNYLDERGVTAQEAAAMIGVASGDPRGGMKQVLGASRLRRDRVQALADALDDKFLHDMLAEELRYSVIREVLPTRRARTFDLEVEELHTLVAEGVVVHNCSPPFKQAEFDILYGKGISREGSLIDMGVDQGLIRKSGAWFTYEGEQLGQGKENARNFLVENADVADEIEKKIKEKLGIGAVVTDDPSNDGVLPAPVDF
# Mtb betalactam = beta-lactam sensitization of Mtb H37Rv, H37Rv; M. tuberculosis H37Rv growth with meropenem, percent inhibition; hits of this screen are not shown here; inhibition, % at 25 µM; 330,000 tested, 0.27% active;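 active means about 74% or more and at least 40 points above the plate without the antibiotic, then above 30% in a dose series; inconclusive means first-round hits that could not be retested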;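 further: growth measured after seven days incubation then overnight dye step; 0% = bacteria only wells and 100% = bacteria with antibiotic; twin plates without the antibiotic show which effects depend on it; some results filed as inactive read as strong as hits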
# YopH inh = YopH tyrosine phosphatase inhibitors, primary screen, biochemical, fluorescence Ex485/Em525; inhibition, %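 (about 10 µM by stock and volumes)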; AID 898, 2007; 140,000 tested, 0.16% active;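 active means inhibition of 50% or more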;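 further: controls were vehicle for no effect and minimum signal wells for full effect; inactives centre near -20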
# Mtb growth = M. tuberculosis H37Rv growth inhibitors, H37Rv strain (AID 1626); M. tuberculosis H37Rv growth inhibition; higher % means a stronger effect; inhibition, % at 10 µM, or IC50 in µM where a hit was titrated; 220,000 tested, 0.95% active;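 active means confirmed in a dose series; inconclusive means inhibition above 80% but not taken into the dose series; inactive means below 80% or under 30% at every dose of the series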;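 further: bacteria incubated seven days before Alamar blue readout; 0% = bacteria only wells and 100% = bacteria with antibiotic wells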
# Arbovirus inh = antivirals against arbovirus infection, primary screen, cell-based, full library, 10K replicate subset. inhibition, % at 10 µM. 200,000 tested, 0.37% active. arbovirus infection cell-based antiviral screen;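 active means inhibition from about 30%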;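 further: bluetongue infection of BSR cells; cell survival read as ATP light after 72 h; 0% = infected wells without compound and 100% = uninfected wells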
# Arbovirus inh repeat = also measured in Arbovirus inh; calls as there; inhibition, %; measured here: 10K subset replicate screen; many hits read low in the repeat;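 first of two repeat runs on a subset; 0% = infected and 100% = uninfected wells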
# Numbers without * were called inactive; u = inconclusive; x = not tested or not shown. This is a subset; count on the stated rates, not on these rows.
SMILES,RecA intein inh,Mtb betalactam,YopH inh,Mtb growth,Arbovirus inh,others
COc1ccc(S(=O)(=O)N2C(=O)/C(=C3\SC(N)=NC3=O)c3ccccc32)cc1,0.9,5,x,-3%,x,
N=c1n(CCN2CCOCC2)c2ccccc2n1CC(O)COc1ccccc1 (stereo not given),4.0,-2,-26,-12%,14,
O=C(Cn1nnc(-c2ccccc2F)n1)OCC(=O)c1ccccc1,-0.1,6,x,-9%,1,
CCCNC(=O)c1ccc2c(=O)c(O)c(-c3ccc(OC)cc3)[nH]c2c1,-74,5,x,-8%,x,
Cc1ccc(/C=N/NC(=O)CSc2nc3ccccc3n2Cc2ccc(Cl)cc2)o1,0.5,0,-19,1%,-15,
CC1CCN(C(=O)CCc2nnc3ccc(NCc4ccco4)nn23)CC1,1.9,0,x,x,x,
CSc1ccccc1NC(=O)c1cc(-c2cccnc2)nc2ccc(Br)cc12,-0.4,27,x,7%,0,
Cc1c(C(C)(C)O)[nH]c2ccc(C#N)cc12,0.3,-5,x,x,x,
Cc1ccc(C)c(OCC(=O)N(Cc2nnc(-c3ccccc3Cl)o2)C2CC2)c1,4.4,-9,x,x,x,
CC(=O)Nc1ccc(N2C(=O)CCC2=O)cc1C,-0.2,-4,7,0%,-8,
Cc1cc2cc(CNC(=O)Nc3ccccc3)ccc2[nH]1,2.0,4,x,4%,11,
CC1(C)CC(=O)C=C(N2CCOCC2)C1,-1.6,-1,x,-9%,2,
Cc1cccc(N(CC(=O)NCCSCc2ccccc2)S(C)(=O)=O)c1,-2.5,2,x,-5%,-3,
O=C(C1=C[C@@H](c2csc3ccccc23)C[C@@H](OCc2ccc(CO)cc2)O1)N1CCN(Cc2ccc3c(c2)OCO3)CC1,16,74,x,x,-4,
COc1ccc(CN2CCC(CNC(=O)NC3CCCCC3)CC2)cc1,1.3,-4,-38,10%,5,
CCOc1cc(/C=N/Nc2ncnc(Cl)c2N)ccc1O,-6.2,-5,-20,-2%,-12,
O=C(NCC1CCCCC1)c1cccnc1,0.3,3,x,x,x,
O=C(Nc1ccc2c(c1)OCO2)c1cccc2c1C(=O)N(Cc1cccnc1)C2,6.9,33,-23,-4%,-10,
O=C(Nc1ccccc1)c1ccncc1,5.5,3,-12,-5%,1,
Cc1ccc(C2=Nc3ccccc3SC(c3cccc([N+](=O)[O-])c3)C2)cc1 (stereo not given),-0.2,100,x,3.7µM*,x,
CC(=O)Nc1ccc(NC(=O)c2ccnn2C)cc1,-1.0,-5,x,x,x,
Cc1cc2cc3c(cc2nc1SCC(=O)O)CCC3,1.6,5,x,0%,4,
C/C(=N\NC(=O)c1ccc(Cl)cc1)c1ccccn1,3.1,99,x,x,x,
CC(=O)C1=C(O)C(=O)N(C)C1c1ccccc1[N+](=O)[O-] (stereo not given),-5.4,39,x,14%,x,
O=C(N/N=C/c1ccccc1[N+](=O)[O-])c1ccc2c(c1)OCCO2,-0.5,8,x,-11%,x,
Cc1ncoc1C(=O)Nc1ccccc1-c1ccccc1,1.0,x,-43,3%,3,
CC(=O)c1sc(NC(=O)c2ccc(F)c(F)c2)nc1C,x,7,-1,0%,2,
O=C(C[N+]1(CC#Cc2ccccc2)CCOCC1)c1ccccc1,-0.8,4,x,6%,0,
CN(C)c1ccc(N/C(=N\S(=O)(=O)c2cccs2)c2ccccc2)cc1,-5.3,2,-34,-4%,-6,
Cc1ccc(S(=O)(=O)c2ccc(Cl)cc2)cc1S(=O)(=O)N1CCOCC1,-2.5,0,-5,-2%,1,
O=C(C[n+]1ccc(C(=O)c2ccccc2)cc1)Nc1ccc(C(F)(F)F)cc1,16,96,x,71%,9,
O=C(NCC1CCCO1)c1onc(CSc2cccc3ccccc23)c1C(=O)O (stereo not given),0.9,20,-14,-13%,4,
Cc1cccn2c(=O)c(C=O)c(Nc3ccccc3)nc12,2.3,20,x,x,x,
O=C1c2cccc3cccc(c23)C(=O)N1c1ccncc1,x,-1,-20,0%,6,
COc1ccc(NC(=O)CCNS(=O)(=O)c2cccc3nsnc23)c(OC)c1,6.9,-7,x,x,x,
O=C(NCc1cccnc1)Nc1ccccc1,-4.7,-4,x,-5%,2,
Cc1ccc(C(=O)Nc2ncccc2O)o1,-0.5,-1,x,x,x,
Cc1ccc(C(=O)N2c3ccccc3OCC2C)cc1 (stereo not given),3.5,4,x,x,x,
Cc1ccc(Cl)cc1N1CCN(CC(=O)NC2CCCc3ccccc32)CC1 (stereo not given),28,79,-22,31%,-19,
CC1=C(C)C(=O)N(C(C)CCc2ccccc2)C1=O (stereo not given),-1.8,-2,x,x,x,
CCc1ccc(NC(=O)CCC(=O)N2CCSc3ccccc32)cc1,2.9,-1,x,x,x,
CCCNC(=O)Cn1nc(C(F)(F)F)c2c1CCCC2,1.9,-14,-32,0%,2,
Cc1c(F)cccc1NC(=O)c1ccc2c(c1)CCN2S(C)(=O)=O,1.4,2,x,x,x,
CN(C(=O)COC(=O)c1cccc(F)c1)c1ccccc1,0.3,-9,x,x,x,
CC1CCCC(C)N1S(=O)(=O)c1ccc(NC(=O)CNCC2CCCO2)cc1 (stereo not given),-0.5,-16,-29,-1%,4,
CC(=O)SCCC(=O)N1C(C)CCCC1C(=O)O (stereo not given),0.5,6,-42,-2%,2,Arbovirus inh repeat=1
Cc1cc(OCc2cc(C(=O)N(C)C(C)c3ccccn3)no2)cc(C)c1Cl (stereo not given),15,8,x,x,x,
COCCSc1nnc(NC(=O)c2ccc(NC(C)=O)cc2)s1,-0.7,-3,x,-2%,-3,
Cc1nc2c(sc3nc(N4CCOCC4)c4c(c32)CC(C)(C)OC4)c(-c2ccccc2)c1C(=O)O,-9.1,2,x,0%,x,
O=C(NCc1ccccc1)c1cc(S(=O)(=O)N2CCOCC2)ccc1F,1.7,2,-39,-14%,5,Arbovirus inh repeat=4

# Carrying on.
SMILES,RecA intein inh,Mtb betalactam,YopH inh,Mtb growth,Arbovirus inh,others
CN(C)c1ccc(C(CN)c2c[nH]c3ccccc23)cc1 (stereo not given),1.8,10,x,8%,-10,
Cc1cc(C)n(-c2cccc(F)n2)n1,0.4,-9,x,-5%,7,
COc1ccc(OC)c2sc(NNC(=O)C3COc4ccccc4O3)nc12 (stereo not given),-3.3,5,x,10%,0,
CCN(CC(N)=O)S(=O)(=O)c1ccc(Br)cc1,-1.3,1,-18,2%,-7,
CCCC/C(O)=C/c1nc2ccccc2[nH]c1=O,5.2,-5,-27,9%,13,
O=C(N/N=C/c1ccccn1)c1cc(-c2ccncc2)nc2ccccc12,1.3,-5,-28,2%,-10,
O=C(c1ccccc1F)N1CCCC(c2ccccc2)C1 (stereo not given),1.6,-2,-10,-9%,1,
COc1ccc(-c2cc(C)no2)cc1S(=O)(=O)NCCCN(C)Cc1ccccc1,-0.6,0,x,x,x,
CCN(CC)S(=O)(=O)c1cc(Br)ccc1OC,6.4,-2,-55,-12%,4,Arbovirus inh repeat=-1
COc1ccc(OC)c(CNC(=O)C(C)n2nc(C)c3c(C)n(-c4ccccc4)nc3c2=O)c1 (stereo not given),-0.7,0,x,x,x,
CCOc1ccc(C(=O)CCC(=O)N2CCN(c3ncccn3)CC2)cc1,0.9,3,x,x,x,
Cn1c(CCN2CCN(c3ccccc3)CC2)nc2cc(NC(=O)c3ccco3)ccc21,-0.3,-18,-32,x,-8,
Cc1cc(C)c2[nH]c(O)c(N=NC(=O)c3cc4c(s3)CCCC4)c2c1,-1.0,-4,-18,5%,-3,
NC(=O)CC1C(=O)N(c2ccccc2)C(=S)N1NC(=O)c1ccccc1 (stereo not given),-0.3,1,x,x,x,
Cc1cc(NS(=O)(=O)c2ccc(NC(=O)Nc3ccc4c(c3)OCO4)cc2)no1,2.1,5,-17,5%,-2,
CCC(C)C(NS(=O)(=O)c1ccc(C)cc1)C(=O)Oc1ccc2c3c(c(=O)oc2c1)CCC3 (stereo not given),6.1,1,-34,31%,11,
CC(=O)c1ccc(C(C)(C)c2ccc(C(C)=O)s2)s1,2.8,25,5,-4%,-2,
C/C(=C\c1ccccc1)C(=O)N1CCN(c2cccc(C(F)(F)F)c2)CC1,19,-5,-14,1%,-18,
CCCCCn1c(CN2CCN(c3cc(Cl)ccc3C)CC2)nc2c1c(=O)[nH]c(=O)n2C,x,20,-5,11%,1,
CN1CCN(c2ccccc2NC(=O)c2cccc(OCc3ccccc3)c2)CC1,3.5,3,-9,14%,-38,
CC(C)OCCCNC(=O)CN1C(=O)/C(=C/c2ccccc2F)Oc2ccccc21,-19,2,x,x,x,
CCOC(=O)c1cc(-c2ccccc2)sc1NC(=O)COC(=O)c1ccc(Cl)c(S(N)(=O)=O)c1,-1.8,7,x,6%,-14,
CC(C)C(=O)N(c1cc2sc(=O)oc2c2ccccc12)S(=O)(=O)c1cccs1,-2.3,u,-15,3%,-28,
O=C(COc1ccc(Br)cc1)NCCNC(=O)c1ccccn1,-0.5,-10,x,x,x,
CN(Cc1nc(-c2ccc(Cl)cc2)no1)C(=O)c1ccc2c(c1)OCO2,6.5,-8,x,x,x,
CCCN=CC1=C(O)CC(c2ccccc2)CC1=O (stereo not given),-2.7,-8,-5,-8%,9,
c1ccc(-c2ccc3nnnn3n2)cc1,x,-3,x,-14%,x,
O=C1c2ccc([N+](=O)[O-])cc2S(=O)(=O)N1Cc1ccccc1,-0.4,-5,x,x,x,
CCCc1cc2c(cc1NC(=O)c1ccco1)OCO2,11,2,x,-7%,-1,
O=C(CSc1nccc(=O)[nH]1)NCc1ccco1,-1.4,-5,x,3%,x,

# Overlap with the part before: seven entries; new compounds follow.
SMILES,RecA intein inh,Mtb betalactam,YopH inh,Mtb growth,Arbovirus inh,others
O=C(COc1ccc(Br)cc1)NCCNC(=O)c1ccccn1,-0.5,-10,x,x,x,
CN(Cc1nc(-c2ccc(Cl)cc2)no1)C(=O)c1ccc2c(c1)OCO2,6.5,-8,x,x,x,
CCCN=CC1=C(O)CC(c2ccccc2)CC1=O (stereo not given),-2.7,-8,-5,-8%,9,
c1ccc(-c2ccc3nnnn3n2)cc1,x,-3,x,-14%,x,
O=C1c2ccc([N+](=O)[O-])cc2S(=O)(=O)N1Cc1ccccc1,-0.4,-5,x,x,x,
CCCc1cc2c(cc1NC(=O)c1ccco1)OCO2,11,2,x,-7%,-1,
O=C(CSc1nccc(=O)[nH]1)NCc1ccco1,-1.4,-5,x,3%,x,
O=c1nccc(N/N=C/c2ccccc2)[nH]1,-4.2,8,x,x,x,
CC1(C)Cc2c(sc3[nH]c(=S)n(Cc4ccco4)c(=O)c23)CO1,0.1,5,-9,-4%,6,
CCOCC(=O)Nc1c(C)n(C)n(-c2ccccc2)c1=O,-0.7,2,x,-1%,3,
O=Cc1c(-c2ccccc2)nc2ccccn12,-4.7,-6,x,9%,x,
CN1C(=O)C(O)(CC(=O)c2ccccn2)c2cc(Br)ccc21 (stereo not given),-0.7,-4,-5,-15%,-13,Arbovirus inh repeat=-5
CCc1c(C)c(C#N)c2[nH]c3ccccc3n2c1=S,-6.0,-14,x,-6%,x,
CC(=O)NC1C(=O)N=C(SCC(=O)Nc2cccc(Cl)c2)NC1=O (stereo not given),0.4,-5,x,-6%,4,
O=[N+]([O-])c1c(NCCO)cc(N2CCCCC2)c2nonc12,x,4,x,-5%,-4,
Cc1cccc(N(C)C(=S)Oc2ccc3ccccc3c2)c1,5.3,0,-21,1%,-1,
CCC(C)C(NC(=O)C1CCC(C)CC1)C(=O)NC1CCN(Cc2ccccc2)CC1 (stereo not given),x,x,x,-4%,1,
CCN1CCN(Cc2c(C(=O)N/N=C(\C)c3ccc(Cl)cc3)nnn2-c2nonc2N)CC1,0.4,4,x,x,x,
Cc1nc(NC(=O)c2ccccc2)sc1-c1csc(Nc2cccc(F)c2)n1,-4.0,0,11,4%,-28,
CN(C)S(=O)(=O)c1cccc(CSCc2cccc(S(=O)(=O)N(C)C)c2)c1,-0.1,-4,x,x,x,
COc1cccc(C(=O)NCc2ccc3[nH]c(C)cc3c2)c1,14,56,x,1%,15,
C=C(C)CSc1nnc2[nH]c(=O)cc(N)n12,0.1,-6,-33,-15%,x,
COc1ccc(/C=N/Nc2nccnc2Cl)c(OC)c1,-4.4,0,x,1%,-5,
CCCNC(=O)NC(=O)CSc1nnc(C)n1N,x,-11,2,-3%,0,
Cc1ccc2c(Cl)cc(Cl)c(OCC(=O)NCCc3ccccn3)c2n1,6.6,1,x,1%,7,
COc1ccccc1C(=O)Nc1c(C)cc(Br)cc1C,1.6,96,x,21%,-2,
